Compound activity (PubChem BioAssay)
Sa ugtP lethal: growth inhibition of ugtP-null S. aureus, primary screen, RN4220 ugtP deletion, OD600 | 16 h; some inactives read as strong as hits | growth inhibition, % (concentration not given with the values) | hit rate 0.54% among 330,000 | AID 1259309, 2017;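 active means z-score under -3 and OD600 up to 0.15 on both plates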;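 further: plate controls were untreated wells for no effect and antibiotic for full effect; wells of about 80 µL received 100 nL stock; the first replicate is given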
Mtb hypoxia inh: PubChem AID 1159583; M. tuberculosis hypoxia-regulated fluorescent reporter, fluorescence; hit rate 0.1% among 300,000; fluorescence inhibition, % (no concentration beside the values);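 active means 35 to 45% if threefold the growth effect, above 45% if 1.5-fold the growth effect; inactive means the rest, general growth blockers included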;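 further: wells of about 50 µL received 100 nL stock; 0% = vehicle wells and 100% = reference inhibitor wells; whole bacteria with a GFP reporter of the hypoxia response; strong numbers were not always called active; many hits fall short of the cut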
RN4220 kill: growth inhibition of S. aureus RN4220, primary screen, OD600. 16 h. inhibition, % (test concentration not listed). hit rate 0.33% among 330,000. AID 1259311, 2017;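 active means z-score of -3 or lower and OD600 up to 0.18 on both plates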;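 further: plate controls were untreated cells for no effect and reference antibiotic for full effect; stock transfer was 100 nL into about 80 µL; one replicate is shown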
PrP 5UTR inh: inhibition of PrP 5' UTR reporter expression. cell-based PrP 5' UTR mRNA reporter, plate reader. inhibition, % (test concentration not listed). hit rate 0.35% among 340,000. AID 488862, 2010;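 active means every replicate at 50% or more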;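 further: 0 = median of the neutral control wells; tested in H4 reporter cells; numbers are from one replicate; inactives centre near -14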
Bead autofluor: compound fluorescence in toxin protease inhibitor counterscreen | compound autofluorescence counterscreen, microsphere flow cytometry; hits give high values | fluorescence intensity (no concentration beside the values) | AID 624483 | hit rate 3.1% among 360,000;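 active means at least 3 SD above the mean of all compounds, about 16000 in these data; inconclusive means too few beads counted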;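 further: 100 nL of 1 mM stock went into each well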
BJeLR viability: MLPCN primary cell-based screen for lethality selective to Ras in HRASV12 cells. hit rate 0.17% among 300,000. AID 1554, 2009. inhibition, % (test concentration not listed). BJeLR (HRASV12) viability, CellTiter-Glo ATP luminescence, 48 h; reference of the scale not given here;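 active means replicate mean above 50%; inconclusive means above 50% but judged a plate artefact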;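 further: 50 nL library stock added to about 25 µL; numbers are from one replicate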
Mtb hypoxia inh growth: further read-out of Mtb hypoxia inh, marked with its call; growth inhibition, %; measured here: M. tuberculosis growth (absorbance);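 0% = vehicle and 100% = reference antibiotic; read after six days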
* hit, by the source's call; ? = inconclusive; . = not tested or not shown. Not a hit list (roughly 3.9% active in at least one column).

SMILES | Sa ugtP lethal | Mtb hypoxia inh | Mtb hypoxia inh growth | RN4220 kill | PrP 5UTR inh | Bead autofluor | BJeLR viability
CC(C)C(NC(=O)c1ccc(Cl)cc1Cl)C(=O)N1CCC1 (stereo unspecified) | 1 | -11 | 0 | 2.3 | -3 | 3838 | .
CCOCCCNC(=O)c1c[nH]c2cc(OC)ccc2c1=O | 6 | 2 | 3 | 9.4 | -7 | 4571 | 4
Cc1cc(OC(F)F)ccc1NC(=S)NC1CCCC1 | 1 | 0 | 1 | 1.1 | -1 | 5420 | 6
NS(=O)(=O)c1ccc(CCNC(=O)CN2C(=O)c3ccccc3S2(=O)=O)cc1 | 2 | 0 | 0 | 0.3 | -18 | ? | -7
O=C(CCN1C(=O)/C(=C/c2ccc(F)cc2)SC1=S)NC1CCS(=O)(=O)C1 (stereo unspecified) | -11 | 9 | 15 | 3.5 | -1 | 6110 | -1
Cc1ccc(C)c(NC(=O)CN(C)C(=O)Cn2c(=O)oc3ccccc32)c1 | 2 | 3 | -7 | 3.6 | -8 | 6563 | 0
C=C(C)[C@@H]1CC[C@]2(C(=O)O)CC[C@]3(C)C(CCC4[C@@]5(C)CC[C@H](O)C(C)(C)C5CC[C@]43C)C12 (stereo partly specified) | 24 | . | . | 46 | -20 | 5240 | -5
Cc1nnc(N(C)C(=O)c2cccnc2)s1 | -9 | . | . | 0.9 | -10 | 3163 | 2
COCC(=O)Nc1ccc(S(=O)(=O)N2CCCC2)cc1 | 21 | 12 | 11 | 5.8 | . | 3446 | -6
CC(C)(C)NC(=O)C(c1cccs1)N(C(=O)c1csnn1)c1cccc(F)c1 (stereo unspecified) | 5 | 7 | 3 | 7.0 | -12 | 4323 | -9
CCc1cc(C(=O)N2CCN(S(=O)(=O)c3cc(C)ccc3C)CC2)sc1C | 2 | 1 | 4 | 2.8 | -27 | 9510 | .
Clc1ncc(CN2CCN(c3ccccc3)CC2)s1 | 15 | 4 | -2 | 7.2 | -22 | 3634 | -9
COc1ccc(C(=O)NCc2nnc(SCC(=O)Nc3ccccc3F)o2)cc1 | 1 | -1 | 5 | 0.3 | 8 | 2468 | -3
CCCCN(C)C(=O)c1cn(CC)c2ccc(S(=O)(=O)N(C)C)cc2c1=O | -4 | . | . | 1.7 | -7 | 6862 | 2
O=[N+]([O-])c1cc(-c2ccc(/C=N\n3cnnc3)o2)cc([N+](=O)[O-])c1 | . | . | . | . | -16 | 3142 | 8
Cc1cc(C)n2nc(C(=O)Nc3ccc4c(c3)OCO4)nc2n1 | 5 | . | . | 0.5 | -52 | 3525 | -2
COc1ccc(OCC(=O)NNC(=O)C(=O)Nc2ccc(C)cc2)cc1 | 7 | 11 | 6 | 1.9 | -10 | 1900 | 5
Cc1ccc2occ(C(c3nnnn3C3CCCC3)N3CCN(C(=O)c4ccco4)CC3)c(=O)c2c1 (stereo unspecified) | 18 | 0 | 1 | 5.3 | -26 | 6990 | -9
C/C(=N\Nc1ccc(Cl)c(C(=O)O)c1)c1ccc(N2CCOCC2)cc1 | . | . | . | . | -11 | 4452 | 1
COc1ccc(S(=O)(=O)Nc2c(C)ccc3nsnc23)cc1OC | -6 | . | . | 5.6 | -20 | 2132 | 4
Nc1nccnc1C(=O)OCc1nc2sc3c(c2c(=O)[nH]1)CCCC3 | -1 | -4 | -5 | 2.6 | -24 | 6862 | 3
Cc1csc(=NC(=S)Nc2ccccc2)n1C | 3 | 5 | 3 | 1.0 | . | . | .
CC(=O)c1ccc(OCC(=O)N2CCCC(Nc3ccc(C)c(C)c3)C2)cc1 (stereo unspecified) | 5 | 2 | -8 | -0.7 | -23 | 5166 | 5
COc1ccccc1C=NNC(=O)CCSc1ccccc1 | -3 | -1 | -5 | -2.6 | . | . | .
Cc1ccc(NC(=O)CN(C)C(=O)COc2cccc3cccnc23)cc1 | 13 | -2 | -2 | 5.6 | -29 | 2340 | -7
O=C(/C=C/c1cc(Br)ccc1F)OCC(=O)N1CCOCC1 | 5 | -2 | 2 | 9.5 | -18 | 3369 | .
COc1cc(C(=O)OC(C)CN2C(C)CCCC2C)cc(OC)c1OC (stereo unspecified) | 7 | 17 | 4 | 4.9 | -21 | 3895 | 4
CCOc1cc(C(=O)NC(=S)Nn2cnnc2)cc(OCC)c1OCC | 7 | -2 | 17 | -2.3 | -28 | 4606 | 8
Cc1cc(OC(C)C(=O)NCc2ccncc2)c2c3c(c(=O)oc2c1)CCCC3 (stereo unspecified) | 6 | 17 | 5 | -0.5 | -6 | 4278 | 12
CC(NC(=O)c1cc2ccccc2oc1=O)c1ccc(O)cc1 (stereo unspecified) | -16 | 4 | -8 | 5.2 | -14 | 3804 | 2
COC(=O)c1[nH]c2ccc(F)cc2c1NC(=O)CCN1CCN(Cc2ccc3c(c2)OCO3)CC1 | -4 | . | . | 5.0 | -13 | 3191 | .
Cc1ccnc(NC(=O)CCC(=O)N(CC(=O)NC2CCCCC2)Cc2cccs2)c1 | 0 | 3 | 14 | 1.9 | -4 | 4759 | 4
CCOc1ccc(CCNC(=O)C(C)n2nc(C)n3c(cc4occc43)c2=O)cc1OCC (stereo unspecified) | 2 | 11 | 4 | 10 | -16 | 3306 | 2
Cc1ccc(Nc2cccc(C(F)(F)F)c2)nn1 | 4 | 4 | 12 | 5.6 | -18 | 5795 | -5
Cc1ccc2c(CN3CC(C)CC(C)C3)cc(=O)oc2c1C (stereo unspecified) | 16 | 13 | 6 | 9.0 | 7 | 3195 | 2
Nc1nc(N)c(Cc2ccc(Cl)cc2Cl)c(N)n1 | . | . | . | . | 27 | 4180 | -7
CC1(C)CCN(Cc2ccccc2)C1CC#N (stereo unspecified) | 4 | 6 | 2 | 1.9 | -4 | 6521 | -10
O=C(COc1ccc(Cl)cc1)NNC(=O)C(=O)N1CCCCC1 | 1 | 2 | 1 | 2.8 | -13 | 7715 | -17
CN(C)c1ccc(/C=N/Nc2cc(N3CCOCC3)nc(N3CCOCC3)n2)cc1 | . | . | . | . | -23 | 2506 | 5
CC1CC(C)CN(C(=O)CSc2nc3ccsc3c(=O)n2Cc2ccccn2)C1 (stereo unspecified) | 5 | 1 | 1 | 2.1 | -22 | 11074 | -9
O=C(Cc1ccc(Br)cc1)N1CCOCC1 | 8 | 15 | 7 | 4.8 | -27 | 4012 | -10
O=C(CN1CCOCC1)Nc1scc2c1c(=O)oc1ccccc12 | 8 | 6 | -5 | 3.1 | . | 3541 | -4
O=c1[nH]n(-c2ccc(Cl)cc2)c(=O)c(Cl)c1Cl | -7 | 5 | 5 | 2.6 | -26 | 21602* | 4
CCOc1ccc(-n2c(SCC(=O)Nc3nccs3)nnc2-c2ccoc2C)cc1 | 6 | 9 | 2 | 7.2 | -3 | 3706 | 8
CSc1ccc(S(=O)(=O)N2CCC(C(=O)Nc3ccccc3C(F)(F)F)CC2)cc1 | -1 | -2 | -3 | -3.9 | -31 | 3612 | -5
COC(=O)c1sccc1NC(=O)/C=C/C(=O)O | 1 | -8 | 3 | -0.6 | -11 | 1967 | -9
CCCCN(C)C(=O)C1CCN(Cc2cccc(OCc3ccccc3)c2)CC1 | 11 | 20 | 11 | 3.0 | -7 | 8978 | -3
NNC(=O)c1cccc(COc2ccc(Br)cc2)c1 | -6 | 5 | 4 | 4.9 | -18 | 2492 | -1
COc1ccc(C(=O)N2CCC(=O)N(C(CO)Cc3ccccc3)CC2)cc1 (stereo unspecified) | . | . | . | . | -30 | 3795 | -1
CCN(CC(=O)Nc1c(F)cccc1F)C(=O)CCNC(=O)c1ccco1 | 9 | 12 | 5 | 2.6 | -20 | 4792 | .
COC(=O)CNC(=O)CN1C(=O)N(c2ccccc2)C(N(O)C(=O)Nc2ccccc2)C1(C)C (stereo unspecified) | 6 | . | . | -0.1 | -16 | 4222 | -5
COc1ccccc1OCC(=O)O/N=C(\N)c1ccccn1 | 2 | 11 | 4 | 3.1 | -67 | 6210 | 8
COc1cc2c(cc1OC)CN(C(=O)/C=C/c1ccc(F)cc1)CC2 | 2 | 4 | -2 | 13 | -13 | 4706 | -5
CCOC(=O)C1=C(c2ccccc2)N=c2s/c(=C\c3cc(OC)c(OC)c(OC)c3)c(=O)n2C1c1cccs1 (stereo unspecified) | . | . | . | . | 8 | 3932 | 1
Cn1cc(S(=O)(=O)CC(=O)N2CCCc3ccccc32)c2ccccc21 | -8 | 9 | 6 | -3.9 | -14 | 6029 | 6
COC(=O)CC1=NN(c2ccc(OC)cc2)C(=O)C1 | -1 | -6 | -9 | 0.7 | -29 | 2149 | 1
O=C(Nc1ccc(F)cc1)C1CC(=O)n2ncnc2N1 (stereo unspecified) | 3 | 0 | 6 | 5.1 | -14 | 4451 | 5
C=CCN(c1ccccc1OC)S(=O)(=O)c1cccc(C(=O)OC2CCOC2=O)c1 (stereo unspecified) | 8 | 9 | 7 | 11 | -16 | 4005 | .
C=CCOc1ccc(C2NC(=O)NC(C)=C2C(=O)OC)cc1 (stereo unspecified) | 6 | 3 | 9 | 4.5 | -4 | 6605 | 2
O=C1/C(=C/c2ccco2)Oc2c1ccc(O)c2CN1CCCCC1 | . | . | . | . | -5 | 2555 | -4

Next structures.
SMILES | Sa ugtP lethal | Mtb hypoxia inh | Mtb hypoxia inh growth | RN4220 kill | PrP 5UTR inh | Bead autofluor | BJeLR viability
NC(=S)NC(=O)/C=C/c1ccccc1 | -3 | . | . | 5.2 | -9 | 2444 | 2
Cc1cccc(C(=O)O)c1[N+](=O)[O-] | 15 | 10 | 8 | 5.0 | -15 | 5259 | .
Cc1cc(C)cc(-c2nnc(SCC(=O)N3CCN(C(=O)c4ccco4)CC3)o2)c1 | -4 | . | . | 0.9 | -15 | 10361 | -2
CCN(CC)C1CC(=O)N(c2cccc(Cl)c2)C1=O (stereo unspecified) | 16 | 4 | -9 | 5.3 | -8 | 3311 | 0
O=C(C(Cc1ccccc1)n1cccc1)N1CCN(Cc2ccccc2)CC1 (stereo unspecified) | 8 | 1 | 9 | 5.8 | -8 | 7199 | -6
CC1CCCN(S(=O)(=O)c2ccc3oc(=O)ccc3c2)C1 (stereo unspecified) | 8 | 4 | -1 | 0.9 | -14 | 5972 | 4
Cc1nnc(SC(C(=O)c2ccccc2)c2ccccc2)[nH]c1=O (stereo unspecified) | -4 | 18 | 13 | 0.3 | -21 | 4287 | 5
CCCCNS(=O)(=O)c1ccc(NC(=O)Cc2ccc(OC)cc2)cc1 | -7 | -5 | -2 | -3.9 | 69* | 4621 | .
CC(C)c1ccc(O)c(NC(=S)NC(=O)c2cccnc2)c1 | -2 | -2 | 0 | 2.6 | -29 | 4217 | 0
O=C(NN=Cc1ccc(O)c2ccccc12)c1cccnc1 | 9 | 8 | -4 | 0.7 | . | . | .
O=C1c2ccccc2C(=O)N1CCCCSc1nc2ccccc2o1 | 9 | . | . | 9.2 | -20 | 2558 | -3
Cc1cccc(N=Nc2c(O)[nH]c3ccc(Br)cc23)c1 | 29 | 6 | 4 | 7.0 | -31 | 3888 | 7
CCCNC(=O)NCCc1c(C)[nH]c2ccccc12 | -1 | 2 | -2 | 2.4 | -15 | 4487 | -4
Cc1c(NC(=O)Nc2cccc(F)c2)c(=O)n(-c2ccccc2)n1C | 1 | 5 | 4 | 3.4 | -15 | 5840 | 8
Nc1nc(N)c2c(ccc3nccc32)[nH]1 | . | . | . | . | 5 | 3269 | 66*
CC(C)C(=O)N[C@@H]1c2ccccc2CC[C@@H]1O | 4 | -6 | -5 | 2.0 | -7 | 3148 | .

Structural class, the entries above containing a COOH group
SMILES | Sa ugtP lethal | Mtb hypoxia inh | Mtb hypoxia inh growth | RN4220 kill | PrP 5UTR inh | Bead autofluor | BJeLR viability
C=C(C)[C@@H]1CC[C@]2(C(=O)O)CC[C@]3(C)C(CCC4[C@@]5(C)CC[C@H](O)C(C)(C)C5CC[C@]43C)C12 (stereo partly specified) | 24 | . | . | 46 | -20 | 5240 | -5
C/C(=N\Nc1ccc(Cl)c(C(=O)O)c1)c1ccc(N2CCOCC2)cc1 | . | . | . | . | -11 | 4452 | 1
COC(=O)c1sccc1NC(=O)/C=C/C(=O)O | 1 | -8 | 3 | -0.6 | -11 | 1967 | -9
Cc1cccc(C(=O)O)c1[N+](=O)[O-] | 15 | 10 | 8 | 5.0 | -15 | 5259 | .
